High-throughput results as filed in PubChem BioAssay.
TRPML1 blocker: qHTS for Inhibitors of the Human Mucolipin Transient Receptor Potential 1 (TRPML1). Mucolipin-1 (Homo sapiens), Q9GZU1. TRPML1-inducible cells, Ca2+ dye fluorescence, FDSS; hits give low values; inhibition of EC80 agonist-evoked calcium signal. activity change, negative = inhibition, % (no concentration beside the values). 390,000 compounds, 0.02% hits. AID 624415, 2012; in the data active means activity change below about -50%; inconclusive means about -30% to -50%; inactive means above about -30%;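 further: stimulus is agonist 54-4 at its EC80 concentration; on the % scale 0 is the no-effect control and ±100 the full control effect; compound concentration not given in the record; the text of the record puts the active cut at -80%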
Target sequence (Q9GZU1 whole entry, looked up): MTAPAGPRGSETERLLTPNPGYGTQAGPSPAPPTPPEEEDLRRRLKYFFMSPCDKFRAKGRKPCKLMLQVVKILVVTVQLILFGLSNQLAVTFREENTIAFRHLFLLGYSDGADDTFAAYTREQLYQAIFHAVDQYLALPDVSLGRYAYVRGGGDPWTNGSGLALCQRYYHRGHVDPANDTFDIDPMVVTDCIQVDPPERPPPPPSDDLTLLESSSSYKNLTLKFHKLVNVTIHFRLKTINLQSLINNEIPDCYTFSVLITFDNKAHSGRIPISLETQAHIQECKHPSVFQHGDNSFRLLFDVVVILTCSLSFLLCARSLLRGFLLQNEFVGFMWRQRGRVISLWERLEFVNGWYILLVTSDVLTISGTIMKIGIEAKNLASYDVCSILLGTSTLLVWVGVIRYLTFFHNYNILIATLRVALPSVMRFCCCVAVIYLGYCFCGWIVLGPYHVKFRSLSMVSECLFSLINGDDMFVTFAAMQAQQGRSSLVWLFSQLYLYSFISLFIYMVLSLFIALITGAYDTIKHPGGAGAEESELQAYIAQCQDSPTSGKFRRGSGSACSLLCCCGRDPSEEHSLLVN
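Tet-induced TRPML1-DL cells loaded with Ca8 no-wash calcium dye were read kinetically on FDSS. Compound addition was followed by EC80 agonist 54-4 (4 uM final); inhibition was read over 110 s.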
gsp ag: qHTS for Agonist of gsp, the Etiologic Mutation Responsible for Fibrous Dysplasia/McCune-Albright Syndrome: qHTS; Potency, µM (titrated, usually from 76.9 µM), for the others: at the highest dose activation (cAMP increase), usual class: activators; 340,000 compounds, 0.13% hits; gsp mutant cells, cAMP HTRF, 30 min; control for the full effect not named in the record; active = well fitted activation curve with a large enough effect; inconclusive = small, poorly fitted or top-dose-only effect, or another doubt; inactive = no such curve, though single readings can be large or run the other way; cell line not stated here;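 further: phosphodiesterase inhibitor Ro 20-1724 added with compounds to block cAMP breakdown; potency means the concentration at half of the fitted maximal effect; nearly all actives have a fitted effect of over 60% in size; about a fifth of the inactives were tested at one dose only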
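Cells in DMEM/10% FBS with G418 were pretreated with compounds in DMSO plus […] (300 uM stock) for 30 min at 37C. cAMP was measured by HTRF (cAMP-d2 plus anti-cAMP antibody-K) after 30 min at room temperature.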
Menin-MLL FL inh: qHTS Assay for Inhibitors Targeting the Menin-MLL Interaction in MLL Related Leukemias: Competition With Fluorescein Labeled MLL-derived Peptide; Fluorescence polarization, fluorescein-MLL peptide displacement from menin; FP activity change, % at 61.4 µM; AID 1766, 2009; 290,000 tested, under 10 active; inconclusive = falling polarisation curve, or a change in total fluorescence; inactive = total fluorescence flat and polarisation flat or rising; no compound was filed as active; the % refers to the polarisation; negative = inhibition;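 further: % of control where 0% means no effect; inhibitors lower the polarisation; unlabelled MLL peptide was the positive control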
TRPML1 agonist: qHTS for Agonists of the Human Mucolipin Transient Receptor Potential 1 (TRPML1) | activation, % (no concentration beside the values) | Mucolipin-1 (Homo sapiens), Q9GZU1 | AID 624414, 2012 | TRPML1-expressing cells, Ca2+ dye fluorescence, FDSS; host cell line not named in the record; reference of the full effect not given here | 410,000 compounds, 0.12% hits; in the data active = activation above about 50%; inconclusive = about 30% to 50%; inactive = below about 30%; further: 0% is about no effect; the text of the record puts the active cut at 80%
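Agonist activity was taken from a 110 s kinetic Ca2+ dye read on the FDSS after pinning compounds onto TRPML1-DL cells. The cells were seeded at 1,500/well with Tet inducer, incubated about 16 h, then dye-loaded at room temperature.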
gsp antag: qHTS for Antagonists of gsp, the Etiologic Mutation Responsible for Fibrous Dysplasia/McCune-Albright Syndrome: qHTS; Potency, µM (top dose mostly 76.9 µM), for inactives: at the top dose activity change, negative = inhibition, most hits filed as inhibitors; 340,000 compounds, 0.4% hits; gsp-mutant cells, cAMP HTRF, 30 min; control for the full effect not named in the record; AID 624288, 2012; active = falling curve of any shape with a large fitted effect; inconclusive = falling curve, mostly with a smaller effect; inactive = flat or rising curve; cell line not stated here;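 further: intracellular cAMP measured with PDE inhibitor Ro 20-1724 present during compound exposure; potency means the concentration at half of the fitted maximal effect; on the % scale 0 is the no-effect control and ±100 the full control effect; nearly all actives have a fitted effect of over 65% in size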
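HTRF cAMP read-out (cAMP-d2 plus anti-cAMP antibody-K in lysis buffer, 30 min RT). Before lysis, cells are exposed to compounds with […] for 30 min at 37C in DPBS containing Ca/Mg, BSA and Tween 20.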
ClpP mod: qHTS Assay for Activators of ClpP; ATP-dependent Clp protease proteolytic subunit (Bacillus subtilis (strain 168)), P80244; purified B. subtilis ClpP, FRET peptide cleavage, 20 min; Potency, µM (top dose mostly 57.5 µM), without a hit: at the top dose activity change, negative = active; 340,000 compounds, 1.9% hits; AID 651965, 2013; active = well fitted falling curve with a large enough effect; inconclusive = small, poorly fitted or top-dose-only effect; inactive = no such curve, though single readings can be large or run the other way; further: potency means the concentration at half of the fitted maximal effect; the source files actives as falling curves though it sought activators and does not explain the sign; nearly all actives have a fitted effect of over 65% in size; many hits overshoot -100%
Target sequence (P80244 whole entry, looked up): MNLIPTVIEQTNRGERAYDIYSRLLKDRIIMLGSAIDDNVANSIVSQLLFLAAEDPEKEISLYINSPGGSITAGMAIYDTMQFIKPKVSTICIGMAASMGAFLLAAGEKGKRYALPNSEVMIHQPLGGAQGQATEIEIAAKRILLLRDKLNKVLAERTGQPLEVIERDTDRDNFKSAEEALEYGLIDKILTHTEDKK
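Purified B. subtilis ClpP, 10 microg/mL final in Tris/HCl pH8 with KCl, BSA, glycerol and Tween-20, cleaved an Abz/nitrotyrosine-quenched decapeptide. Fluorescence (ex 320, em 430) was read at 0 and 20 min at room temperature. Delta was normalized to 5.8 microM ADEP and DMSO/no-enzyme controls.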
Numbers without * were called inactive; ? = inconclusive; · = not tested or not shown; & = joins results of further samples; [ ] = another dose, or the depositor's remark.

no. | Molecule | TRPML1 blocker | gsp ag | Menin-MLL FL inh | TRPML1 agonist | gsp antag | ClpP mod
1 | O=c1c2ccccc2sc2ccc(Cl)cc12 | 7 | 14% | -0.8 | -0.6 | 18% | -11%
2 | COCCNC(=O)[C@H]1C[C@@H]1[C@H](NP(=O)(c1ccccc1)c1ccccc1)c1ccccc1 | -2 | · | -3.5&-3.7 | -0.5 | 7% | 3.8%
3 | O=c1[nH]c(-[n+]2ccc3ccccc3c2)c(/C=N/N=C(\[O-])c2ccccc2)s1 | 3 | 9% | 0.1 | 14 | ? | -19%
4 | CC[C@H](C)[C@H](NC(N)=O)C(=O)Nc1ccc(NC(C)=O)cc1 | 27 | -4%[15.4 µM] | 0.7 | 0.4 | 15% | ·
5 | O=C1OC(OC2CCCCC2)(c2ccccc2)c2ccccc21 (configuration not stated) | -19 | ? | 1.8 | -0.1 | -4% | 1.0%
6 | COc1cc(OC)c(N(C)C(=O)CCNC(=O)Cn2cnc3ccccc3c2=O)cc1Cl | -4&24 | 8% | 8.1 | 1.1&-0.5 | -3% | -1.2%&-1.3%
7 | O=C(Nc1cccs1)OCCN1CCN(Cc2ccccc2)CCC1=O | -17 | · | 2.6 | 0.0 | 9% | -0.9%
8 | O=C(NCc1ccc(F)cc1)C(=O)NCC1OCCN1S(=O)(=O)c1cc(F)ccc1F (configuration not stated) | 5 | -47%[inhibitor] | · | -1.1 | · | -4.0%
9 | CC1CN(c2nn3c(=O)c4ccccc4nc3c3ccccc23)CC(C)O1 (configuration not stated) | 32 | 9% | 6.5 | 1.5 | 17% | -15%
10 | CS(=O)(=O)N1CCCC(C(=O)NC2CCCCCCC2)C1 (configuration not stated) | -1 | ? | 3.2 | -0.4 | 4% | -5.2%
11 | Cc1cnc(CNC(=O)CC2C(=O)NCCN2Cc2cccc(F)c2F)cn1 (configuration not stated) | -5 | -1% | ? | 1.4 | 5% | -2.4%
12 | Cc1ccccc1NC(=O)COc1ccc2c(c1)OC(C)(C)CC2=O | 7 | 3% | 4.0 | -1.2 | -3% | -29%
13 | COc1ccc(C(=O)NCCCc2ccccc2)cc1 | 1 | -8%[15.4 µM] | · | 0.9 | 0% | ·
14 | C=CCNc1nc(C2(C)CC3(CC(C)(C)OC3=O)C(=O)O2)cs1 (configuration not stated) | 5 | -26% | 4.7 | -0.7 | 2% | -1.8%
15 | COC(=O)Cn1c(=NC(=O)c2ccc(OC)c(OC)c2)sc2cc(OC)ccc21 | 14 | ? | -1.5 | 1.2 | 23% | ?
16 | CC(C)Cc1cc(C(=O)NCCCN2CCOCC2)no1 | -1 | -70%[inhibitor] | · | -0.7 | 13% | 1.7%
17 | Brc1ccc(CSc2nnc(-c3cccnc3)o2)cc1 | 6 | 25% | -1.6 | 1.9 | 15% | ·
18 | Cc1c(C(C)NC(=O)Nc2ccc(F)cc2F)cnn1C (configuration not stated) | -11 | -70% | 5.8 | -0.3 | 0% | -1.9%
19 | CC(=O)c1cccc(-n2c(=O)c3c4c(sc3n(Cc3ccccc3Cl)c2=O)CN(C(C)=O)CC4)c1 | 44 | · | · | -0.4 | · | -2.1%
20 | COc1ccc(-c2csc3ncnc(Oc4cccc5ccc(C)nc45)c23)cc1 | -10 | -22% | 1.6 | 2.6 | -6% | -8.4%
21 | Cc1ccc(C2=CC(=O)CC(C)(C)C2)cc1 | 4 | · | · | 1.5 | 5% | -4.0%
22 | COc1ccc(CNC(=O)CN2C(=O)c3cccnc3Oc3ccc(C)cc32)cc1 | 6 | · | · | 0.9 | · | 2.3%
23 | O=C(NNC(=O)c1cc(F)c(F)cc1Cl)c1ccc(NS(=O)(=O)c2cccs2)cc1 | 6 | -83%[inhibitor] | · | -0.9 | 2% | 0.8%
24 | Cc1cccn2c(=O)c3cc(C(=O)NC4CCCC4)c(=N)n(C4CCCC4)c3nc12 | -12 | -7% | 0.8 | -0.7 | -14% | ?
25 | COc1nccnc1NS(=O)(=O)c1ccc(NC(=S)NC(=O)c2ccc(F)cc2)cc1 | ? | -2% | 2.8 | -0.1 | ? | 1.1%
26 | COc1cc2c(cc1OC)CN(C(=O)CN1C(=O)NC3(CCC(C)CC3)C1=O)CC2 (configuration not stated) | 2 | 3% | · | 0.5 | 0% | -2.2%
27 | CCCOP(=O)(OCCC)C(Nc1ccc(C(=O)O)cc1)c1ccccc1 (configuration not stated) | -10 | -14% | 2.4 | 0.0 | -17% | 3.5%
28 | COc1ccc(CNc2nc(C)cc(C)c2C#N)cc1 | -1 | -7%[15.4 µM] | -1.6 | 2.3 | 4% | -8.9%
29 | NS(=O)(=O)c1ccc(N2N=C(c3ccc(Br)cc3)CC2c2ccc(F)cc2)cc1 (configuration not stated) | 52 | ? | 0.3 | -0.2 | 19% | 4.9%
30 | CC1CCCN(c2ncnc3c2cnn3-c2ccc(F)cc2)C1 (configuration not stated) | -29 | · | · | -0.2 | · | -23%
31 | N#Cc1ccc(C(=O)Nc2cc(-c3ccc(F)cc3)nn2-c2ccccc2)cc1 | -25 | · | · | 1.1 | ? | 1.9%
32 | O=C(Cn1cc([N+](=O)[O-])nc1[N+](=O)[O-])N1CCN(c2ccccc2)CC1 | -5 | -5%[15.4 µM] | 0.6 | -0.2 | 6% | ·
33 | C=CCN=C1N[C@@H](c2ccccc2)C(C(=O)OC)=C(C)N1CC | -4 | · | -0.1&-7.2 | -0.2 | 4% | -8.3%
34 | CCSc1nnc(NC(=O)c2cccnc2Cl)s1 | -10 | 8% | 2.4 | 1.9 | -36% | -2.3%
35 | O=C(NC(=S)Nc1cccnc1)c1ccccc1 | 4 | -3%[15.4 µM] | -6.3 | -0.3 | -16% | ·
36 | Cc1ccc(NC(=O)CCC(=O)NNC(=O)COc2ccccc2)c(C)c1 | 8 | 2% | 1.7 | 0.1 | 8% | -0.7%
37 | COc1cc(OC)cc(-c2n[nH]c(=S)n2-c2ccc3c(c2)OCCO3)c1 | -6 | -4%[15.4 µM] | -6.7 | 0.4 | -14% | ·
38 | Cc1cccc(OCC(=O)NNC(=O)c2cccs2)c1 | 0 | 13%[15.4 µM] | 0.4 | -0.5 | 3% | ·
39 | Cn1c(=O)[nH]c(=O)c2c1nc(SCCO)n2CC(O)COc1ccccc1 (configuration not stated) | 22 | 2%[15.4 µM] | 0.8 | 0.3 | -14% | ·
40 | CCOc1ccc(NC2C=CS(=O)(=O)C2)cc1 (configuration not stated) | 18 | -22% | -3.6 | 0.2 | -3% | -1.9%
41 | CC(=O)Nc1ccc(NC(=O)C(C)OC(=O)CCN=C2NS(=O)(=O)c3ccccc32)cc1 (configuration not stated) | -3 | -6%[15.4 µM] | · | 0.0 | 14% | 0.4%
42 | COc1ccccc1OCC(=O)Nc1ccc2c(c1)OCCO2 | 7 | -28% | -0.6 | -0.1 | 2% | ·
43 | CCCNc1c(NC(=O)c2ccc3c(c2)OCO3)c(=O)oc2ccccc12 | 7 | 7% | · | -0.6 | 3% | ·
44 | CCc1cccc(NC(=O)C2CCCN2S(=O)(=O)c2ccccc2C(F)(F)F)c1 (configuration not stated) | 5 | -11% | · | 1.6 | -10% | 1.0%
45 | Cc1cc(OCC(O)CN(C)C(=O)C(C)Oc2ccccc2)ccc1Cl (configuration not stated) | 53 | 2% | 0.5 | -0.5 | -2% | -0.8%
46 | CC1CCC(=C(C#N)C(=O)Nc2cccc(Cl)c2)CC1 (configuration not stated) | -5 | -18% | -0.3 | 1.3 | -5% | -5.6%
47 | O=C(NCc1ccncc1)C1CCN(C(=O)c2cccc(Cl)c2)CC1 | -2 | -22% | -2.2 | 1.6 | 14% | ·
48 | Nc1ccccc1Nc1cc(-c2cccc(Cl)c2)nn1-c1ccccc1 | -2 | 17% | 0.5 | -0.2 | -19% | -3.9%
49 | CSCCC1NC(=O)N(CC(=O)Nc2ccc3c(c2)OCCO3)C1=O (configuration not stated) | 8 | 19% | · | 2.3 | 6% | -2.4%
50 | O=C1CN(S(=O)(=O)c2ccccc2)CCN1 | 4 | 0%[15.4 µM] | · | 0.2 | 9% | -2.0%
51 | CCOC(=O)c1c(C)[nH]c(C(=O)COC(=O)c2ccc(F)c(S(=O)(=O)N3CCOCC3)c2)c1C | 18 | 8% | 3.0 | 0.3 | 0% | -2.2%
52 | Cc1occc1C(=O)NNC(=O)CN1C(=O)NC(C)(c2ccccc2)C1=O (configuration not stated) | 16 | ? | · | 0.8 | 10% | -1.4%
53 | O=C(Nc1ccc2nc(SCC(=O)N3CCCC3)sc2c1)c1cccc(F)c1 | 5 | · | · | 3.1 | · | 6.4%
54 | COc1ccc(C2=NN(CC(=O)NCC(OC)OC)C(=O)CC2)cc1 | -2 | 1% | ? | 1.3 | 11% | -2.7%
55 | CC1(C(=O)Nc2ccc3c(c2)OCO3)CCN1C(=O)Cc1cccs1 (configuration not stated) | 7 | · | · | -0.3 | · | -1.7%
56 | Cc1cc(/C=C/C(=O)O)c(C)n1-c1ccc(Cl)cc1 | 34 | -14% | -3.4 | 3.3 | -14% | -2.4%
57 | CCCN(CC1CCCO1)C(=O)CCc1nnc(CCc2ccc(OC)cc2)o1 (configuration not stated) | -15 | 12% | · | 0.4 | 6% | -1.4%
58 | O=c1[nH]cc(C(F)(F)F)cc1NS(=O)(=O)c1ccccc1[N+](=O)[O-] | 1 | -10%[15.4 µM] | -1.0 | -0.6 | 10% | 0.1%
59 | O=C(Nc1nccs1)C1CC(=O)N(c2ccc(F)cc2)C1 (configuration not stated) | 2 | -15% | -7.2 | -0.2 | 8% | ·
60 | CC(C)CC(=O)Nc1ccc(-c2nc3ccccc3c(=O)o2)cc1 | 8 | -1%[15.4 µM] | -1.2 | 0.0 | -5% | 11µM*
61 | Cc1cccc(NC(=O)CCNC(=O)c2ccco2)c1 | -5 | 23%[15.4 µM] | 0.1 | 3.2 | 3% | ·
62 | O=C1c2ccccc2C(=O)N1Cc1cccnc1 | -7 | ? | 0.9 | 0.3 | 6% | ·
